Ecoli growth = inhibitors of Escherichia coli growth. OD600 absorbance (concentration not given with the values). actives 0.21% (n = 330,000). OD600, 23 h; active compounds read low;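 active = OD600 absorbance below the run mean of sample wells minus 3.6 SD, in any replicate, cut at about 0.56 in these data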;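 also: stock transfer was 300 nL into about 60 µL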
FGF22 binding = binders of recombinant human FGF22 by thermal shift; calls only at 9.99 µM; SYPRO orange fluorescence; percent of sucrose octasulfate shift, DMSO zero; actives 1.5% (n = 340,000); Q9HCT0; AID 651658;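 active = melting point raised past a set limit in the mean and every replicate; inconclusive = no clear call; three in four hits are not shown here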
Target sequence (Q9HCT0 whole entry, looked up): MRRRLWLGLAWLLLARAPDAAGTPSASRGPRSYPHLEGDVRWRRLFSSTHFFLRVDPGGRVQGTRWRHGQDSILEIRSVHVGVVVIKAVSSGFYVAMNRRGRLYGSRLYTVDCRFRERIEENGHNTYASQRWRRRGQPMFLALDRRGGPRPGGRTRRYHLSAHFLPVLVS
HNF4A DNA FP = change in binding of human HNF4 alpha to DNA | HNF4a-FITC DNA binding, fluorescence polarization, 1 h | activity change, % at 10 µM | actives 0.3% (n = 360,000) | AID 1224865; in the data active = activity change above about 30%, passing the limit was not always enough;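 also: controls were the assay level and a saturating level of protein; the project sought stronger binding though the title names inhibitors; some compounds called inactive have numbers as strong as hits; positive values seem to mean higher polarization but the record does not say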
MLL AF4-AF9 inh = MLL-AF4/AF9 protein interaction inhibition; AlphaScreen, biotin-AF4 peptide binding to FLAG-AF9; P42568; inhibition, % at 10 µM; actives 0.47% (n = 350,000);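 active = every replicate reaching a set inhibition limit, whatever the replicate mean, cut at about 25% in these data; inconclusive = mean inhibition reaches that limit but some replicates miss it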;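 also: 0% = plate neutral control median and 100% = total signal loss; the record names both 10 and 1 µM as test concentration; the first replicate is given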
Target sequence (P42568 whole entry, looked up): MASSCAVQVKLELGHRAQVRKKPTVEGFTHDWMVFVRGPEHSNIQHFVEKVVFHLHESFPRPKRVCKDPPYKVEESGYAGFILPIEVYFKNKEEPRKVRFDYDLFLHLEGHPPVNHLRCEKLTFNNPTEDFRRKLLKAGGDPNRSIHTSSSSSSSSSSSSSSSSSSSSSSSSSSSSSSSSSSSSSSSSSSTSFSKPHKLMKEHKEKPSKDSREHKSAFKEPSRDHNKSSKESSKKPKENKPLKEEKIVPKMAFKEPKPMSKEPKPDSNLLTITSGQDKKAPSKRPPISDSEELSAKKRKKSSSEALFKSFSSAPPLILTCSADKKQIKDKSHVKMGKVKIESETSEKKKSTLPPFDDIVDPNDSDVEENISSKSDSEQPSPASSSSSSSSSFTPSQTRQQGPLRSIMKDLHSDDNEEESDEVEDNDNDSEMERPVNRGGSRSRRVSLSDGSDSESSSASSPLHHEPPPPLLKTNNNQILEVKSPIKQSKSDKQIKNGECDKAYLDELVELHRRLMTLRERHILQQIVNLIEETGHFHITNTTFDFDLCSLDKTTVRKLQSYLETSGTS
Vif TR-FRET = inhibitors of Vif binding to APOBEC3G peptide, primary screen, biochemical, TR-FRET, GST-Vif 1-94, biotin-A3G peptide, dose response retest (AID 1117319); TR-FRET GST-Vif / biotin-A3G peptide binding; higher % means a stronger effect; test concentration not given here; strong numbers were not always called active; inhibition, %, or IC50 in µM where a hit was titrated; actives 0.57% (n = 260,000);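 active = above the screen mean plus three standard deviations and confirmed in dose response; inconclusive = results disagree or hit not tested in dose response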;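 also: Vif residues 1-94 fused to GST binding biotinylated APOBEC3G peptide 110-148; 0% = full assay without inhibitor and 100% = GST in place of GST-Vif; retest series ran down from 100 µM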
rRNA inh HTS = inhibits bacterial ribosomal RNA function over humanized ribosomes; AID 720706; GFP signal change (wild-type ribosome), % (concentration not given with the values); E. coli WT GFP vs humanized-ribosome RFP mutants, fluorescence, 24 h; active compounds read low; DMSO median 0, no signal -100; actives 1.6% (n = 350,000);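 active = significant combined selectivity score with lowered wild-type GFP, culture density cut under 30%, mutant RFP and density less affected; inactive = any of these conditions unmet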; also: one replicate is shown; some compounds called inactive have numbers as strong as hits
ALR H2O2 inh = inhibitors of human sulfhydryl oxidase ALR | inhibition, % (concentration not given with the values) | actives 3.8% (n = 290,000) | purified ALR, DTT oxidation, H2O2 HRP-luminol luminescence | P55789;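 active = mean and each replicate at 75% or more; inconclusive = only one of the two met; inactive = neither met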;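 also: stock transfer was 7.5 nL into about 7.5 µL; 0% = neutral wells and 100% = wells with inactivated enzyme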
Target sequence (P55789 whole entry, looked up): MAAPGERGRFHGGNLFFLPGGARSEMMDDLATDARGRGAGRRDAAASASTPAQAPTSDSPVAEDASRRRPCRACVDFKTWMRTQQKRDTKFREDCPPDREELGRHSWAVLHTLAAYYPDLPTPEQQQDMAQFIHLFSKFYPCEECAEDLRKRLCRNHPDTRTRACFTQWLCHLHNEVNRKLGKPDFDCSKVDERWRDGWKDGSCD
rRNA inh HTS OD600 = also measured in rRNA inh HTS; calls as there; OD600 change, %; measured here: OD600 growth;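 optical density of the mix in the first replicate; 0 = DMSO median and -100 = no signal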
rRNA inh HTS RFP = further read-out of rRNA inh HTS, marked with its call; RFP signal change, %; measured here: RFP humanized mutant strains;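 first replicate; 0 = DMSO median and -100 = no signal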
An asterisk follows results filed as active; i = inactive; ? = inconclusive; · = not tested or not shown; & = joins results of further samples.

SMILES	Ecoli growth	FGF22 binding	HNF4A DNA FP	MLL AF4-AF9 inh	Vif TR-FRET	rRNA inh HTS	rRNA inh HTS OD600	rRNA inh HTS RFP	ALR H2O2 inh
O=C(C[C@H]1C=C[C@H](NC(=O)NC2CCCC2)[C@H](CO)O1)NCc1ccc(F)cc1	·	i	·	-3.4	·	6	8	2.1	·
COc1ccccc1NC(=O)CN1CCC(c2nc3ccccc3[nH]2)CC1	0.65	i	2.6	-1.7	·	-14	-20	-6.8	-7
CCOc1ccc(-c2nnc3n2N=C(c2ccc(OC)cc2)CS3)cc1	0.71	·	2.3	·	?	·	·	·	-13
OCC1(Cc2ccc(Cl)cc2)CCN(Cc2ccc(Oc3ncccn3)cc2)CC1	0.69	i	-2.3	-16	2%	0	-7	-4.4	-5
CS(=O)(=O)c1cnc(-c2ccccc2)nc1Sc1ccc(F)cc1	0.71	i	-2.7	-8.8	-6%	18	21	5.3	·
Cc1ccc(CNC(=O)CSc2nc3[nH]ncc3c(=O)[nH]2)cc1	0.71	i	-5.1	-0.2	·	4	2	-5.2	-1
CC(=O)c1ccc(OCCNS(=O)(=O)c2ccc(-n3cnnn3)cc2)cc1	0.67	i	-0.7	-0.6	·	6	4	-1.0	3
C[C@H]1CCCCO[C@H](CN(C)C(=O)CCCN(C)C)[C@@H](C)CN([C@@H](C)CO)C(=O)c2cc(NC(=O)Cc3ccccc3)ccc2O1	·	i	·	-3.2	·	3	11	-1.0	·
O=C(CN1C(=O)CCC1=O)Nc1nc(-c2ccccn2)cs1	0.73	i	0.5	-2.1	19%	5	-3	-2.1	-22
CO[C@H]1CN(C)C(=O)c2cc(NS(=O)(=O)c3cccc(F)c3)ccc2OC[C@H](C)N(C(=O)Cc2cccnc2)C[C@H]1C	·	i	·	0.6	·	-5	-5	0.1	·
CCc1cccc(C)c1NS(=O)(=O)c1cc(Br)cnc1N	0.59	i	3.0	-1.4	·	-47	-71	-15	-8
CCn1nc(CC(=O)Nc2nnc(CC(=O)N3CCOCC3)s2)c2ccccc2c1=O	0.78	·	-0.5	·	?	·	·	·	0
O=C(C1CCN(c2nnc(N3CCCC3=O)s2)CC1)N1CCN(Cc2ccc3c(c2)OCO3)CC1	0.74	·	-4.1	·	13%	·	·	·	·
O=C(NCc1ccccn1)C1CCC(=O)N1C1CCCC1 (centres undefined)	0.7	i	-1.2	-3.8	·	16	14	1.4	·
CN(C)S(=O)(=O)c1cc(NC(=O)COC(=O)C2CSC3(C)CCC(=O)N23)ccc1Cl (centres undefined)	0.7	i	1.3	3.6	2%	-7	-5	-1.6	-15
CCOC(=O)CC1CCCCN1C(=O)c1ccc2oc(CCc3ccccc3)nc2c1 (centres undefined)	0.67	i	1.4	-1.8	·	-9	-15	0.7	-5
COc1ccc(NC(=O)CSc2nc3scc(C)c3c(=O)[nH]2)cc1	0.72	i	2.8	-1.0	-6%	·	·	·	-7
O=C(CP(=O)(c1ccccc1)c1ccccc1)N1CCOCC1	0.74	i	1.0	-3.3	-9%	10	7	-1.8	-28
CCc1ccc(OCc2ccc(C(=O)O)o2)cc1	0.61	i	1.5	-4.5	·	-34	-43	-4.9	-10
N#C[C@H]1[C@H](c2ccccc2C2=CCCCC2)[C@H](CO)N1C(=O)NC1CCCC1	·	i	·	-0.2	·	-38	-68	-3.2	·
CCOC(=O)c1c(S(=O)(=O)N2CCc3ccccc32)c(C)n(C)c1C	0.69	i	0.9	1.4	-3%	-2	-8	3.6	-2
O=C(c1cccc(F)c1)N1CCCCN2[C@H](CO)[C@@H](c3ccc(-c4cncnc4)cc3)[C@@H]2C1	·	i	·	-6.9	·	1	7	-3.6	·
O=C(Cn1cnc2c(nnn2Cc2ccccc2)c1=O)NCC1CCCO1 (centres undefined)	0.71	i	4.4	-3.3	-1%	3	2	-1.1	7
CCCCN(CCCC)S(=O)(=O)c1ccc(NC(=O)CN2CCOCC2)cc1	0.69	i	1.6	6.1	2%	-44	-51	1.3	2
Cc1[nH]n2c(=O)c(C#N)c(-c3ccccc3)nc2c1-c1ccccc1	0.69	·	3.5	·	9%	·	·	·	-4
Next part.
SMILES	Ecoli growth	FGF22 binding	HNF4A DNA FP	MLL AF4-AF9 inh	Vif TR-FRET	rRNA inh HTS	rRNA inh HTS OD600	rRNA inh HTS RFP	ALR H2O2 inh
CN(C)C(=O)c1ccc(-c2ccc([C@H]3[C@@H](C#N)N(C(=O)C4CC4)[C@@H]3CO)cc2)cc1	·	i	·	-11	·	7	10	-3.3	·
COc1cc(/C=C/C(=O)OCC(=O)NC2CC2)cc(S(=O)(=O)N2CCc3ccccc32)c1OC	0.77	·	-1.6	2.9	3%	-19	-21	-2.6	-21
N#Cc1nc(Cc2ccccc2)oc1N1CCN(c2ccccc2)CC1	0.71	i	0.5	?	8%	-25	-26	3.6	3
Cc1cc(NC(=O)c2cccc(COc3ccc(Br)cc3)c2)no1	0.74	i	-0.8	0.1	12%	8	-2	-5.3	1
COc1ccc(OC)c(CN(CC(F)(F)F)S(=O)(=O)c2ccccc2Br)c1	·	i	·	2.9	·	-21	-26	-2.7	·
Cc1ccc(C)c(NC(=O)CSc2nnc([C@@H](N)Cc3ccccc3)o2)c1	0.71	·	-2.8	·	5%	·	·	·	-16
O=C(CSc1nnc(CNC(=O)c2c(F)cccc2Cl)o1)Nc1ccc2c(c1)OCO2	0.71	i	2.0	2.3	1%	0	4	-2.2	97*
COc1ccc(S(=O)(=O)N(C(=O)c2ccncc2)c2ccc(OC(=O)c3ccncc3)cc2)cc1	0.7	i	1.1	-2.9	-7%	9	3	-3.1	27
Cc1cc(C(=O)N/N=C/c2cn[nH]c2-c2ccccc2)cs1	·	i	0.2	2.3	·	·	·	·	3
CCC(C(=O)Nc1c(C)cccc1C)n1c(-c2ccc(-c3ccccc3)cc2)nc2ccccc21 (centres undefined)	·	i	-0.5	-3.4	·	5	-3	-0.7	·
S=C(c1ccc(-c2ccc(Cl)cc2Cl)o1)N1CCCCC1	0.73	·	-1.2	·	?	·	·	·	7
Cc1ccc(/C=N/n2c(C)nnc2C)o1	·	i	-1.9	-3.1	·	6	3	3.0	-15
O=S1(=O)CC(N2CCN(CCO)CC2)CN1Cc1ccccc1 (centres undefined)	·	i	-1.6	-0.5	·	8	12	-0.6	·
COc1ccc(C(C)=O)cc1CSC(=N)N	0.69	i	-1.4	-0.3	-3%	19	16	-4.3	99*
O=C(c1cccnc1)N1C[C@H]2[C@@H](c3ccccc31)[C@@H](CO)N2C(=O)C1CC1	·	i	·	0.3	·	2	3	-0.7	·
CCOC(=O)c1cc2nc(-c3ccccc3)cc(C)n2n1	0.66	i	2.2	-5.8	·	-29*	-4.1*	5.3*	-4
COc1cc(OC)cc(C(=O)NNc2nc3cc4c(cc3s2)OCO4)c1	0.77	i	2.2	-1.3	27%	-17	-36	-12	?
Cc1noc(C)c1COc1ccccc1C(=O)N(C)Cc1ccc(C(C)(C)C)cc1	0.65	i	-2.2	0.4	11%	1	3	2.6	·
Cc1sc2ncn3c(C)nnc3c2c1C	0.75	·	-0.7	·	5%	·	·	·	-5
COc1cc(Cl)c(C)cc1NC(=O)CN1CCN(C(=O)c2cccs2)CC1	·	i	1.3	0.2	·	-35	-62	-4.6	·
O=C1CCC(C(=O)NC2(C(=O)NC3CCCCC3)CCCCC2)N1 (centres undefined)	0.69	·	2.6	·	-1%	·	·	·	-5
Fc1ccc(-c2nnc(N3CCOCC3)c3ccccc23)cc1F	0.65	i	-3.8	-1.3	·	-8	-14	-2.7	-5
CCn1c(SCC(=O)Nc2cc(Cl)ccc2OC)nnc1C1CC1	0.64	i	0.6	1.4	·	-8	-15	6.3	4
O=C(NCC1CC1)Nc1ccccc1	0.67	i	-2.0	3.4	-4%	12	16	-1.2	0
CCN(CC)S(=O)(=O)c1ccc(NC(=O)COC(=O)c2cc(S(=O)(=O)Nc3ccc(OC)cc3)ccc2O)cc1	0.66	i	0.1	-0.5	-2%	-10	-10	0.2	-11
(continued)
SMILES	Ecoli growth	FGF22 binding	HNF4A DNA FP	MLL AF4-AF9 inh	Vif TR-FRET	rRNA inh HTS	rRNA inh HTS OD600	rRNA inh HTS RFP	ALR H2O2 inh
CC1CCc2nc3ccc(S(=O)(=O)N4CCC(C(=O)NC(C)c5ccccc5)CC4)cc3c(C(=O)O)c2C1 (centres undefined)	0.69	i	1.6	1.4	3%	12	1	4.6	-14
O=C(O)C1CCCCC1C(=O)Nc1ccc(Cl)cc1Cl (centres undefined)	0.69	i	1.5	-3.7	30%	-21	-17	-3.2	-6
C[C@@H]1CN([C@@H](C)CO)C(=O)Cc2cc(NC(=O)Cc3cn(C)c4ccccc34)ccc2O[C@H]1CN(C)Cc1ccccc1	·	i	·	15	·	-1	-12	28	·
CCOc1ccc(CCNC(=O)c2cc(-c3ccccc3)c(N3CCOCC3)s2)cc1OCC	0.68	i	-2.9	-22	·	2	7	2.4	1
Cc1ccnc(NC(=O)CN2C(=O)c3ccccc3C2=O)c1	0.65	i	1.8	-1.3	-1%	2	-4	-3.9	-2
O=C(O)c1cn(-c2ccccc2)nc1-c1ccc(F)cc1	0.76	i	-37	-2.0	4%	-2	0	-2.0	-1
O=C(CC(=O)c1ccccc1O)c1cccc(F)c1	0.65	·	-3.6	·	1%	·	·	·	-1
COCCNC(=O)CSc1nc2ccc(N3CCOCC3)cc2c(=O)n1CCc1ccccc1	0.72	·	2.2	·	15%&-9%	0	3	3.1	·
O=C(CSc1nnnn1-c1cccc2ccccc12)N1CCOCC1	0.7	·	-5.0	·	10%	·	·	·	-10
COc1cc(CC(=O)OCC(=O)N2CC(=O)Nc3ccccc32)cc(OC)c1OC	0.73	i	1.2	-1.8	-8%	4	-1	-1.7	1
CC(C)C(=O)N1CCC1(C)C(=O)NS(=O)(=O)c1cccs1 (centres undefined)	·	i	3.6	-1.1	·	14	25	-1.4	·
O=[N+]([O-])c1cc([N+](=O)[O-])c(Oc2cncc(Cl)c2)cc1NC1CCCCCCC1	0.68	i	-0.6	7.0	·	-1	9	-3.6	·
CC(NC(=O)c1ccc(NC(=O)CC2SC(N3CCCC3)=NC2=O)cc1)c1ccc(S(N)(=O)=O)cc1 (centres undefined)	0.67	i	-4.8	0.6	6%	4	4	-0.1	-4
O=C(c1ccc(F)cc1)N1CCCCN2[C@H](C1)[C@H](c1ccc(C#CC3(O)CCCC3)cc1)[C@@H]2CO	·	i	·	0.3	·	1	-1	-3.0	·
COC(=O)c1c(NC(=O)c2nc3nc(C)cc(C(F)F)n3n2)sc2c1CCC2	0.65	·	-0.1	·	-3%	·	·	·	-4
COC(=O)C1(Cc2cc(-c3cccc(Br)c3)no2)CCN(C(=O)OC(C)(C)C)CC1	0.67	i	0.9	-4.1	·	-7	-10	-0.4	-19

Structures listed so far that contain a tert-butyl group:
SMILES	Ecoli growth	FGF22 binding	HNF4A DNA FP	MLL AF4-AF9 inh	Vif TR-FRET	rRNA inh HTS	rRNA inh HTS OD600	rRNA inh HTS RFP	ALR H2O2 inh
Cc1noc(C)c1COc1ccccc1C(=O)N(C)Cc1ccc(C(C)(C)C)cc1	0.65	i	-2.2	0.4	11%	1	3	2.6	·
COC(=O)C1(Cc2cc(-c3cccc(Br)c3)no2)CCN(C(=O)OC(C)(C)C)CC1	0.67	i	0.9	-4.1	·	-7	-10	-0.4	-19

From PubChem BioAssay

Some of the compounds tested (hit frequency here may not be typical).
